# Vaccinia inh – Vaccinia orthopox stage-specific inhibition; Vaccinia-infected cells, mCherry/Venus stage reporter fluorescence; stronger effect = lower value; some inactives read as strong as hits; activity change (mCherry), % (test concentration not listed); 89,000 compounds, 0.01% hits; AID 1053133;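 active means mCherry past -33% and 40 or more points under the early reporter, replicates agreeing; inconclusive means past -33% without that gap or agreement; tested in A549 cells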;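 further: scaled between vehicle wells and reference inhibitor wells; 23 nL library stock went into each well; one replicate is shown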
# Vaccinia inh Venus – further read-out of Vaccinia inh, marked with its call; activity change (Venus), %; measured here: Venus reporter, other viral stage;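 negative = less Venus signal; first of two replicates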
# The depositor's hits bear a star; u = inconclusive; x = no result given; & = joins results of further samples. Only part of the results is shown (hit frequency here may not be typical).
SMILES,Vaccinia inh,Vaccinia inh Venus
COC(=O)[C@H]1[C@H](CO)[C@H]2Cn3c(ccc(C4=CCCC4)c3=O)[C@@H]1N2CC1CCCC1,1,11
COc1cccc(-c2cn(CC[C@@H]3CC[C@@H](NC(=O)CN(C)C)[C@H](CO)O3)nn2)c1,6,12
CCCC#Cc1ccc([C@H]2[C@@H](C#N)N(C(=O)C3CCOCC3)[C@H]2CO)cc1,-8,-10
C[C@@H]1CN([C@@H](C)CO)C(=O)Cc2cc(NC(=O)Nc3ccc4c(c3)OCO4)ccc2O[C@@H]1CN(C)S(=O)(=O)c1ccc(Cl)cc1,-32,-31
C[C@@H]1CN([C@@H](C)CO)C(=O)CCCn2nncc2CO[C@@H]1CN(C)C(=O)c1ccncc1,3&12,4&7
C[C@@H]1CN([C@@H](C)CO)C(=O)c2cc(NC(=O)Nc3ccc(C(F)(F)F)cc3)ccc2O[C@@H](C)CCCCO[C@H]1CN(C)S(=O)(=O)c1ccccc1,-15,-16
CC(C)NC(=O)Nc1ccc2c(c1)C(=O)N([C@H](C)CO)C[C@H](C)[C@@H](CN(C)Cc1ccccc1)OCCCC[C@@H](C)O2,7,2
C[C@H]1CN([C@@H](C)CO)C(=O)c2cc(NC(=O)Nc3ccc(F)cc3)ccc2O[C@@H]1CN(C)CC1CCCCC1,-3,-2
C[C@H]1CN([C@@H](C)CO)C(=O)c2cc(NC(=O)Nc3ccc4c(c3)OCO4)ccc2O[C@@H]1CN(C)Cc1ccccc1,-3,-3
C[C@@H]1CN([C@H](C)CO)C(=O)c2cc(C#CC3CC3)cnc2O[C@H]1CN(C)C(=O)CC1CC1,14,9
C[C@H](CO)N1C[C@H](C)[C@@H](CN(C)Cc2ccccn2)Oc2ncc(C#CCc3ccccc3)cc2C1=O,-22,-21
C[C@@H]1CN([C@@H](C)CO)C(=O)Cc2cc(NS(=O)(=O)c3ccc(Cl)cc3)ccc2O[C@H]1CN(C)Cc1ccc(C(=O)Nc2ccccc2N)cc1,17,14
COc1ccc(-c2ccc([C@@H]3[C@@H](CO)N4CCCCN(C(=O)c5ccc6c(c5)OCO6)C[C@@H]34)cc2)cc1,-2,-24
C[C@H]1CCCCO[C@H](CN(C)Cc2ccccc2)[C@@H](C)CN([C@@H](C)CO)C(=O)c2cc(NC(=O)Nc3ccccc3)ccc2O1,u,x
Cc1noc(C)c1NC(=O)N(C)C[C@H]1Oc2c(NC(=O)C3CCCCC3)cccc2C(=O)N([C@H](C)CO)C[C@@H]1C,16,12
O=C(Cc1ccccn1)N1CCCCN2[C@H](CO)[C@H](c3ccc(-c4ccc(F)cc4)cc3)[C@H]2C1,-1,-12
CCNC(=O)[C@H]1[C@H](CO)[C@H]2Cn3c(ccc(C4=CCCC4)c3=O)[C@@H]1N2C(=O)C1CC1,13,6
C/C=C/c1cnc2c(c1)C(=O)N([C@@H](C)CO)C[C@H](C)[C@@H](CN(C)CC1CCCC1)O2,13,2
O=C(c1cnccn1)N1CC(=O)N2[C@H](CO)[C@H](c3ccc(C#CC4CCCC4)cc3)[C@H]2C1,-26,-14
Cc1noc(C)c1S(=O)(=O)Nc1cccc2c1O[C@H](CN(C)S(=O)(=O)c1c(C)noc1C)[C@H](C)CN([C@@H](C)CO)C2=O,-1,-4
CN1[C@@H]2Cn3c(ccc(-c4ccncc4)c3=O)[C@H]1[C@@H](C(=O)Nc1nccs1)[C@@H]2CO,16,25
CC=Cc1ccc2n(c1=O)C[C@@H]1[C@@H](CO)[C@H](C(=O)NC3CCC3)[C@H]2N1C(=O)c1cnccn1 (mixture of isomers),0,-2
O=C(C[C@H]1CC[C@@H]2[C@H](COC[C@H](O)CN2S(=O)(=O)c2ccc(Cl)cc2)O1)NCc1ccc(Cl)c(Cl)c1,u,x
O=C(C[C@H]1CC[C@H]2[C@@H](COC[C@@H](O)CN2Cc2cccc(F)c2)O1)NCC1CCCCC1,-26,-12
C[C@@H]1CN([C@@H](C)CO)C(=O)c2cccc(NC(=O)C3CCCCC3)c2O[C@@H]1CN(C)Cc1ccccc1,6,6
C[C@@H]1CCCCO[C@@H](CN(C)S(=O)(=O)c2ccc(Cl)cc2)[C@@H](C)CN([C@@H](C)CO)C(=O)c2cc(NC(=O)c3ccncc3)ccc2O1,0,-10
CO[C@H](CN(C)C(=O)C1CCOCC1)[C@H](C)CN(C(=O)Nc1ccc(C(F)(F)F)cc1)[C@H](C)CO,15,10
COc1ccc(NC(=O)N2C[C@H]3[C@@H](c4ccccc42)[C@@H](CO)N3C(=O)C2CCCCC2)cc1,5,13
C[C@@H]1CN([C@@H](C)CO)C(=O)c2cc(N(C)C)ccc2O[C@H]1CN(C)S(=O)(=O)c1cccs1,6,-3
C[C@@H]1CN([C@@H](C)CO)S(=O)(=O)c2ccc(C#CC(C)(C)O)cc2O[C@@H]1CN(C)C(=O)C1CCCCC1,1,-1
C[C@@H]1CN([C@@H](C)CO)C(=O)Cc2cc(NC(=O)Nc3cccc4ccccc34)ccc2O[C@H]1CN(C)S(=O)(=O)c1ccc(F)cc1,10,20
COc1ccccc1C#Cc1ccc([C@H]2[C@H](CO)N3CCCCN(C(=O)C4CCC4)C[C@@H]23)cc1,-28,-20
CCC(=O)Nc1ccc2c(c1)C(=O)N(C)C[C@H](OC)[C@@H](C)CN(CCC(F)(F)F)[C@H](C)CO2,2,-2
CN1[C@H](C(=O)NCCc2ccccc2)[C@@H](CO)[C@@H]2Cn3c(ccc(-c4ccccc4)c3=O)[C@@H]21,9,5
C[C@H]1CN([C@@H](C)CO)C(=O)Cc2cc(NC(=O)C3CCCCC3)ccc2O[C@@H]1CN(C)Cc1ccncc1,0,2
C[C@H](CO)N1C[C@H](C)[C@H](CN(C)C(=O)Nc2ccc3c(c2)OCO3)Oc2ncc(/C=C/c3ccccc3)cc2C1=O,u,x

# Reprinted from the part before: 4 compounds, followed by the next part.
SMILES,Vaccinia inh,Vaccinia inh Venus
CCC(=O)Nc1ccc2c(c1)C(=O)N(C)C[C@H](OC)[C@@H](C)CN(CCC(F)(F)F)[C@H](C)CO2,2,-2
CN1[C@H](C(=O)NCCc2ccccc2)[C@@H](CO)[C@@H]2Cn3c(ccc(-c4ccccc4)c3=O)[C@@H]21,9,5
C[C@H]1CN([C@@H](C)CO)C(=O)Cc2cc(NC(=O)C3CCCCC3)ccc2O[C@@H]1CN(C)Cc1ccncc1,0,2
C[C@H](CO)N1C[C@H](C)[C@H](CN(C)C(=O)Nc2ccc3c(c2)OCO3)Oc2ncc(/C=C/c3ccccc3)cc2C1=O,u,x
N#C[C@H]1[C@@H](c2ccc(C#CC3CC3)cc2)[C@@H](CO)N1S(=O)(=O)c1ccccc1,-2,-6
COCCN(C[C@H]1N[C@H](CO)[C@@H]1c1ccccc1)C(=O)NC1CCCC1,10,3
COc1cc2c(cc1OC)CN(C(=O)[C@H]1[C@@H]3C(=O)O[C@@H](c4ccccc4)[C@@H](c4ccccc4)N3[C@@H](c3ccccc3OCCO)[C@]13C(=O)Nc1ccc(C#CCCO)cc13)CC2,14,11
C[C@H](CO)N1C[C@H](C)[C@@H](CN(C)Cc2cccnc2)Oc2cc(C#CC3CCCC3)ccc2S1(=O)=O,u,x
CCCNC(=O)N1CC2(CCN(CC3CC3)CC2)c2c([nH]c3cc(OC)ccc23)[C@@H]1CO,5,-1
CO[C@H]1CN(C)C(=O)c2cc(NC(=O)C3CC3)ccc2OC[C@@H](C)N(CC2CC2)C[C@H]1C,11,8
C[C@H]1CN([C@@H](C)CO)C(=O)Cc2cc(NC(=O)CCN3CCOCC3)ccc2O[C@H]1CN(C)Cc1ccc(C(F)(F)F)cc1,-19,-12
COc1ccc(NC(=O)N(C)C[C@@H]2Oc3ncc(-c4ccc(C#N)cc4)cc3C(=O)N([C@H](C)CO)C[C@@H]2C)cc1,7,4
O=S(=O)(c1cccc(Cl)c1)N1[C@@H]2CNC[C@H]1C2c1ccc(-c2cccc(F)c2)cc1 (stereo partly drawn),12&6,28&19
C[C@H](CO)N1C[C@H](C)[C@H](CN(C)Cc2ccc(-c3ccccc3)cc2)Oc2ccc(NC(=O)Cc3ccccc3)cc2CC1=O,u,x
Cc1cc(C(=O)Nc2cccc3c2O[C@@H](CN(C)C(=O)Nc2cccc4ccccc24)[C@@H](C)CN([C@H](C)CO)C3=O)n(C)n1,7,5
C[C@@H](NC(=O)C[C@H]1C=C[C@@H](NC(=O)C2CCC2)[C@@H](CO)O1)c1ccccc1,-1,6
C[C@H](CO)N1C[C@H](C)[C@H](CN(C)C(=O)C2CCOCC2)Oc2ncc(-c3cccc(C#N)c3)cc2C1=O,11,8
Cc1ccc(S(=O)(=O)Nc2ccc3c(c2)CC(=O)N([C@H](C)CO)C[C@@H](C)[C@H](CN(C)C(=O)NC(C)C)O3)cc1,-4,1
CC=Cc1ccc2n(c1=O)C[C@H]1[C@H](CO)[C@@H](C(=O)Nc3ccc(-c4ccccc4)cc3)[C@@H]2N1C(=O)CC (mixture of isomers),-4,-5
CCCN1[C@H](C(=O)N[C@H](C)c2ccccc2)[C@@H](CO)[C@@H]2Cn3c(ccc(-c4cccc(F)c4)c3=O)[C@@H]21,-31,-21
CC(C)NC(=O)Nc1ccc2c(c1)C(=O)N([C@H](C)CO)C[C@H](C)[C@@H](CN(C)C(=O)NC1CCCCC1)O2,10,3
COCC#Cc1ccc2c(c1)O[C@@H](CN(C)S(=O)(=O)c1cccc(OC)c1)[C@H](C)CN([C@@H](C)CO)S2(=O)=O,5,-6
Cc1noc(C)c1S(=O)(=O)Nc1ccc2c(c1)C(=O)N([C@H](C)CO)C[C@@H](C)[C@@H](CN(C)S(C)(=O)=O)OCCCC[C@H](C)O2,8,7
CCN1[C@@H]2c3cccc(=O)n3C[C@@H]2[C@@H](CO)[C@@H]1C(=O)NC1Cc2ccccc2C1,5,-4
CNC[C@@H]1Oc2ccc(NS(=O)(=O)c3c(C)noc3C)cc2CC(=O)N([C@@H](C)CO)C[C@@H]1C,25,12
C[C@@H]1CN([C@@H](C)CO)C(=O)CCCn2cc(nn2)CO[C@H]1CN(C)S(C)(=O)=O,6,4
C[C@H]1CN([C@@H](C)CO)C(=O)c2c(c3ccccc3n2C)-c2ccccc2CO[C@@H]1CN(C)Cc1cccnc1,-22,-23
C[C@H]1CN([C@@H](C)CO)C(=O)c2cccc(NC(=O)c3nc4ccccc4s3)c2O[C@H]1CN(C)Cc1ccc(Oc2ccccc2)cc1,4,-2
Cc1ccc(S(=O)(=O)N(C)C[C@@H]2Oc3ccc(NC(=O)CCCCCC(=O)Nc4ccccc4N)cc3C(=O)N([C@@H](C)CO)C[C@@H]2C)cc1,3,7
C[C@@H]1CN([C@H](C)CO)C(=O)c2cccc(NC(=O)c3ccc(-c4nccs4)cc3)c2O[C@@H]1CN(C)CC1CCCCC1,-10,-7
O=C(C[C@@H]1CC[C@@H]2[C@H](COC[C@H](O)CN2C(=O)Nc2cccc(Cl)c2)O1)N1CCCCC1,-16,-6
C[C@H]1CN([C@@H](C)CO)C(=O)c2cc(C3=CCCC3)cnc2O[C@@H]1CN(C)C(=O)Nc1ccc(C(F)(F)F)cc1,-35,-25
C[C@H](CO)N1C[C@H](C)[C@@H](CN(C)C(=O)Cc2ccccc2)Oc2ncc(-c3ccc(F)cc3)cc2C1=O,-9,-12
CCCNC(=O)N1[C@@H](CO)[C@@H]2c3ccccc3N(C(=O)NC(C)C)C[C@@H]21,15,14
COc1cccc(C#Cc2ccc([C@H]3[C@@H](CO)N(C(=O)C4CC4)[C@H]3C#N)cc2)c1,-5,-9
CN(C)CC(=O)N1[C@@H]2c3cccc(=O)n3C[C@@H]2[C@@H](CO)[C@@H]1C(=O)NCc1ccccc1F,2,-5
CCCNC(=O)N(C)C[C@H]1Oc2ncc(-c3ccc(F)cc3)cc2C(=O)N([C@H](C)CO)C[C@@H]1C,19,1
CO[C@@H]1CN(C)C(=O)c2ccc(NC(=O)C3CC3)cc2OC[C@H](C)N(C(=O)c2ccccn2)C[C@H]1C,5,5
O=C(C1CCC1)N1CC[C@@H]2[C@H](CO)Nc3ccc(C#Cc4cccc(F)c4)cc3[C@@H]21,-3,-2
CN(C)C(=O)C[C@@H]1CC[C@H](NC(=O)Nc2cccc(F)c2)[C@@H](CO)O1,10,10

# Reformatted field by field: four of the compounds above
CN(C)CC(=O)N1[C@@H]2c3cccc(=O)n3C[C@@H]2[C@@H](CO)[C@@H]1C(=O)NCc1ccccc1F
  Vaccinia inh: 2; Vaccinia inh Venus: -5
CCCNC(=O)N(C)C[C@H]1Oc2ncc(-c3ccc(F)cc3)cc2C(=O)N([C@H](C)CO)C[C@@H]1C
  Vaccinia inh: 19; Vaccinia inh Venus: 1
CO[C@@H]1CN(C)C(=O)c2ccc(NC(=O)C3CC3)cc2OC[C@H](C)N(C(=O)c2ccccn2)C[C@H]1C
  Vaccinia inh: 5; Vaccinia inh Venus: 5
O=C(C1CCC1)N1CC[C@@H]2[C@H](CO)Nc3ccc(C#Cc4cccc(F)c4)cc3[C@@H]21
  Vaccinia inh: -3; Vaccinia inh Venus: -2

# (listing goes on)
SMILES,Vaccinia inh,Vaccinia inh Venus
COc1ccc(NC(=O)N(C)C[C@@H]2OCCCC[C@H](C)Oc3ccc(NS(=O)(=O)c4ccc(C)cc4)cc3C(=O)N([C@H](C)CO)C[C@H]2C)cc1,-17,-30
CC(C)NC(=O)Nc1ccc2c(c1)C(=O)N([C@H](C)CO)C[C@@H](C)[C@H](CN(C)S(=O)(=O)c1ccccc1)OCCCC[C@@H](C)O2,-9,-5
CCNC(=O)C[C@H]1CC[C@H]2[C@H](COc3ccc(NC(=O)c4cccc(OC)c4)cc3C(=O)N2C)O1,13,9
COc1ccc(CN(C)C[C@H]2Oc3c(NC(=O)C4CCOCC4)cccc3C(=O)N([C@H](C)CO)C[C@@H]2C)cc1,26,18
CO[C@H]1CN(C)C(=O)c2cc(NC(=O)c3ccccc3F)ccc2OC[C@@H](C)N(C)C[C@H]1C,-11,-3
